PKD1 inh = inhibitors of human PKD1 kinase; inhibition, %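 (about 10 µM by stock and volumes)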; 200,000 tested, 0.056% active; PKD1 kinase fluorescence polarization assay; Q15139;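 active = inhibition of 50% or more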;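 note: controls were vehicle for no effect and a reference inhibitor for full effect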
GALR2 ag = agonists of human galanin receptor 2 (GALR2). AID 803. GALR2-expressing cells, agonist activation read-out. 140,000 tested, 0.48% active. activation, %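 (tested at 5 µM)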;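 active = above mean plus 3 SD of all compounds, about 5% in these data, not always enough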;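 note: 0% = vehicle buffer wells and 100% = reference agonist at full effect; tested in CHO reporter cells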
Target sequence (O43603 whole entry, looked up): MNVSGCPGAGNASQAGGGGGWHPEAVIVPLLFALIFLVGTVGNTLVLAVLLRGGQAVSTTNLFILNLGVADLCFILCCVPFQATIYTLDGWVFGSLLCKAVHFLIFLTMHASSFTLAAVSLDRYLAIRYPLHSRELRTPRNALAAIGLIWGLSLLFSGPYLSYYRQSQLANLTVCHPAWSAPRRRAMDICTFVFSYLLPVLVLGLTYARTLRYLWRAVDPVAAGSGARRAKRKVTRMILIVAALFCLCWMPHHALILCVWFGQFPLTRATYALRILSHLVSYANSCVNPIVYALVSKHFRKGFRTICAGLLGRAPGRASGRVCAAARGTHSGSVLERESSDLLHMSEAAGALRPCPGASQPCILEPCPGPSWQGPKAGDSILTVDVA
RGS16-Gao HTS = RGS16-Galphao interaction regulator (human); O15492+P09471; bead-based flow cytometry RGS16-Galphao binding, fluorescence; actives lie on both sides; binding response (% of control), % at 10 µM; 220,000 tested, 0.38% active; AID 1441;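 active = below 25% or above 175%, edge rows of some plates excepted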;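 note: Galphao activated by GDP with aluminum fluoride before binding; 100% = wells without compound and 0% = beads without RGS; some results beyond the cut were filed as inactive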
Target sequence (O15492 whole entry, looked up): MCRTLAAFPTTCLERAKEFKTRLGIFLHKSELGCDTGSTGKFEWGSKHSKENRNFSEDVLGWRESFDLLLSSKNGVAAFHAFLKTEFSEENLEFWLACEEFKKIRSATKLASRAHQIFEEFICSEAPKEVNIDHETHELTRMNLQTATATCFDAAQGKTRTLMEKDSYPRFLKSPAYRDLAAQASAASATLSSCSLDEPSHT
Target sequence (P09471 whole entry, looked up): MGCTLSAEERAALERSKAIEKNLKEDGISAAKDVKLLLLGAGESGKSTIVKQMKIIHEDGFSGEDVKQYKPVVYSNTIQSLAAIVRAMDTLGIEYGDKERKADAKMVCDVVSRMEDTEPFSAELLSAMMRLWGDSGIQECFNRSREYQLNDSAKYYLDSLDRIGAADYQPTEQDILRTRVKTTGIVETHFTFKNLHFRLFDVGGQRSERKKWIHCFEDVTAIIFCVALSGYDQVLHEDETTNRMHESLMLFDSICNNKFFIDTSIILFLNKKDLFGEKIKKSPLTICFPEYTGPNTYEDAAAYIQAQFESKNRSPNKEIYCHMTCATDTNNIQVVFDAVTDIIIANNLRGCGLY
HSV augment = HSV replication enhancement | HSV replication augmentation in cells, fold increase | 220,000 tested, 0.005% active | AID 1956 | maximum fold increase;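 active = peak rise of 1.5-fold or more in the series; tested in PC3 cells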;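 note: first round at 10 µM; read as green reporter fluorescence; hits show the peak of a series up to 25 µM; 1 = signal of infected wells without compound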
INS promoter inh = TRM-6 insulin promoter activity inhibition; TRM-6 cells (human fetal islet line), insulin promoter-eGFP reporter, imaging; reporter expression induced with tamoxifen; 130,000 tested, 0.9% active; inhibition, % at 2 µM;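 active = inhibition above the mean plus 3 SD, with well images judged a real hit on visual review, cut at about 60% in these data, passing the limit was not always enough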
INS promoter inh cell count = further read-out of INS promoter inh, marked with its call; normalized cell count, %; measured here: cell count, toxicity; reference of the scale not given here;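 cells exposed to compound for 48 h; stained nuclei by imaging scaled within each plate; lower means fewer cells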
HSV augment primary fold = recorded beside HSV augment, whose call it bears; fold increase; compound at 10 µM; measured here: primary screen fold increase 10 uM; tested in PC3 cells;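 GFP signal in the first replicate; 1 = infected wells without compound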
Starred values were filed as active, the others as inactive; i = inactive; · = not tested or not shown; & = joins results of further samples.

SMILES	PKD1 inh	GALR2 ag	RGS16-Gao HTS	HSV augment	HSV augment primary fold	INS promoter inh	INS promoter inh cell count
COc1ccc(C)cc1-n1nnnc1SCC1CCCCO1 (stereo unspecified)	1	-1.0	104	i	1	-13	67
CC(C)OC(=O)c1cc(NC(=O)C2C3CCC(O3)C2C(=O)O)cc(C(=O)OC(C)C)c1 (stereo unspecified)	-17	-0.3	100	i	0.95	-22	125
Cc1ccc(NS(=O)(=O)c2cn(C)cn2)cc1	-9	0.7	99	i	0.91	32	60
CCNc1nc(NCC)nc(C(=O)NN)n1	-10	-0.8	105	i	0.99	53	112
O=C1C2C3C=CC(C3)C2C(=O)N1/N=C/c1ccc(-c2ccccc2[N+](=O)[O-])o1 (stereo unspecified)	6	-2.1	137	i	1.1	7	72
O=C1CCCCCN1C(=O)c1cccc(C(=O)N2CCCCCC2=O)c1	2	-4.4	105	i	1.2	·	·
CC(C)C(NS(=O)(=O)c1ccc2c(c1)OCCCO2)C(=O)O (stereo unspecified)	-8	-0.5	101	i	0.94	·	·
COc1ccccc1NC(=O)NC1(C(=O)N2CCCCCC2)CCCCC1	-1	-1.5	114	i	0.9	-28	50
O=C(O)CCC(=O)OCC1CCCO1 (stereo unspecified)	-6	-1.0	104	i	0.85	·	·
O=c1c2[nH]c3ccccc3c2ncn1CCN1CCNCC1	-6	-1.9	101	i	0.96	·	·
Cn1nnnc1SCC(=O)N1c2ccccc2Sc2ccccc21	-2	-1.1	109	i	0.98	9	114
Cc1ccc(NS(=O)(=O)c2cc(C(=O)NCCSC3CCCCC3)ccc2C)cc1	-10	-1.9	99	i	1.3	-33	79
COc1ccc(N)cc1-n1c(C)ccc1C	-5	·	87	i	0.86	·	·
Cc1ccc(-c2ccc(/C=N/NC(=O)CN3CCCC3)o2)cc1Cl	8	-3.1	95	i	1.1	23	166
CCOC(=O)C1CCCN(C2CC(=O)N(c3ccccc3)C2=O)C1 (stereo unspecified)	7	·	96	i	0.86	0	77
O=C(CC1C(=O)NCCN1Cc1ccc(-c2ccccc2)cc1)NCCCn1cccn1 (stereo unspecified)	-1	·	110	i	0.85	·	·
Cc1ccc(C(=O)Nc2ccon2)cc1S(=O)(=O)N1CCCC1	-1	-2.1	104	i	1	-25	133
COc1ccc(Cl)cc1NC(=S)Nc1ccc(Cl)cn1	-2	·	99	i	0.9	·	·
c1cc(Nc2ncnc3sccc23)cc(-c2nnc3n2CCCCC3)c1	5	-0.1	114	i	0.93	·	·
COc1ccccc1N1CCN(CC(=O)N2N=CCC2c2ccccc2)CC1 (stereo unspecified)	-6	0.3	108	i	1.1	-66	62

Some of the entries so far, as a markdown table.
| compound | PKD1 inh | GALR2 ag | RGS16-Gao HTS | HSV augment | HSV augment primary fold | INS promoter inh | INS promoter inh cell count |
| --- | --- | --- | --- | --- | --- | --- | --- |
| O=C(CC1C(=O)NCCN1Cc1ccc(-c2ccccc2)cc1)NCCCn1cccn1 (stereo unspecified) | -1 | · | 110 | i | 0.85 | · | · |
| Cc1ccc(-c2ccc(/C=N/NC(=O)CN3CCCC3)o2)cc1Cl | 8 | -3.1 | 95 | i | 1.1 | 23 | 166 |
| O=C1C2C3C=CC(C3)C2C(=O)N1/N=C/c1ccc(-c2ccccc2[N+](=O)[O-])o1 (stereo unspecified) | 6 | -2.1 | 137 | i | 1.1 | 7 | 72 |

Other results follow.
SMILES	PKD1 inh	GALR2 ag	RGS16-Gao HTS	HSV augment	HSV augment primary fold	INS promoter inh	INS promoter inh cell count
Oc1ccc(/C=N/NC(=S)Nc2cccnc2)cc1O	0	-0.7	81	i	0.83	-14	82
COc1cc(SC)ccc1C(=O)N(C)Cc1ccccc1	-1	0.0	100	i	0.9	-19	167
CNC(=O)c1[nH]cnc1C(=O)Nc1cccc(OC)c1	4	-1.4	97	i	0.93	29	102
CSc1nc(Cl)cc(N(CCO)CCO)n1	8	-0.7	107	i	0.98	-18	85
O=C(c1ccc(Cl)cc1)c1oc2ccccc2c1CS(=O)(=O)c1ccccc1	-4	-1.4	109	i	0.87	-22	88
CN(C)c1oc(-c2ccccc2Cl)nc1S(=O)(=O)c1ccccc1	-12	-4.0	112	i	0.82	·	·
COc1ccc(NCc2ccc3c(c2)OCO3)cc1Cl	-8	-3.7	98	i	0.74	-13	142
CCOC(=O)CSc1nc2cc(C)ccc2cc1C#N	7	-2.5	95	i	1.1	·	·
CC(=O)c1cccc(NC(=O)COC(=O)C2=COCCO2)c1	3	·	97	i	0.88	·	·
CCOC(=O)c1ccc2c(c1)nc(SCC(=O)c1ccco1)n2CC	-8	-3.1	52	i	0.83	29	113
Cc1cc(C)n2nc(SCN3C(=O)c4ccccc4C3=O)nc2n1	0	-1.1	98	i	0.93	·	·
O=C(CSc1ncnc2[nH]ncc12)Nc1nc(-c2ccc(F)c(F)c2)cs1	-6	·	101	i	0.95	·	·
C/C(Cc1ccccc1)=N/NC(=O)CNC(=O)C(c1ccccc1)c1ccccc1	·	·	103	i	1.1	·	·
COc1ccc(C(CC(=O)O)NC(=O)c2cc3cc(Br)ccc3oc2=O)cc1OC (stereo unspecified)	0	·	104	i	1	-18	45
COCC(C)n1c(SCC(=O)N(C)C2CCS(=O)(=O)C2)nc2ccccc2c1=O (stereo unspecified)	-7	·	84	i	1.1	-24	74
CCCCCCCCCCNC(=O)C(=O)Nc1ccccn1	-4	0.3	103	i	0.94	-8	124
O=C(O)CSc1nc2c(c(C(F)(F)F)n1)CCCC2	-7	·	93&102	i	0.88&1	-8	165
COc1ccc(-c2nnc(N(C)C(=O)C3CCCO3)s2)cc1 (stereo unspecified)	0	-0.4	111	i	0.86	5	88
CS(=O)(=O)N(CC(=O)N1CCOCC1)c1ccc2c(c1)OCO2	-3	0.4	96	i	0.92	25	141
CC(C)[C@H](NC(=O)c1ccccc1)C(=O)OCC(=O)N1CCc2ccccc2C1	3	-3.6	80	i	0.81	9	99
Cc1cc(N/N=C/c2ccccc2)nc(NCc2ccccc2)n1	3	0.4	103	i	0.89	·	·
Fc1cccc(Cl)c1-c1nnc2ccc(C(F)(F)F)cn12	11	·	101	i	0.98	·	·
Cc1ccc(NC(=O)Cc2nc(CCl)cs2)cc1	-4	0.3	105	i	1	-27	93
Nc1ccc(S(=O)(=O)N2CCCC2C(=O)O)cc1 (stereo unspecified)	·	·	101	i	1.1	·	·
O=S(=O)(/C=C/c1ccccc1)NCCc1ccccn1	4	-0.2	87	i	0.8	·	·
CCOC(=O)/C(C#N)=C1/C=C(C)NC(c2ccccc2O)=N1	-20	-0.7	98	i	0.81	-18	156
Cc1ccc(Cn2ncc3c(N4CCN(c5ccc(C)cc5)CC4)ncnc32)cc1	-8	-0.3	100	·	·	·	·
CC(C)(C)NC(=O)CSc1nnc(-c2ccccn2)n1-c1ccccc1	-8	-0.7	104	i	0.95	·	·
CCNc1nc(NCC)n2c(SCC(=O)c3ccccc3Cl)nnc2n1	7	·	98	·	·	21	177
COc1cccc(CN(C)CC(=O)NC(=O)NCc2ccccc2)c1	-12	0.1	90	i	1	-7	155
Cc1ccc(CSc2ncnc3c2cnn3-c2ccccc2)cc1	1	-0.2	102	i	1.2	·	·
Cc1ccc(C)c(NC(=O)CSc2ccc(-c3cccs3)nn2)c1	-8	-0.1	103	i	0.76	·	·
COc1ccccc1NC(=O)CSc1nnc(Cn2cnc3ccccc32)n1C	-3	-3.1	99	i	1.1	·	·
COc1ccc(OC)c(C2C(C(N)=O)=C(C)Nc3nc(CCCO)nn32)c1 (stereo unspecified)	0	-2.1	102	i	0.79	·	·
Cn1c(COc2cccc3ccccc23)nnc1SCC(=O)OC1CCCCC1	·	·	98	i	0.94	·	·
O=C(CN1CCC(n2nnc3cc(F)ccc32)CC1)N1CCc2ccccc2C1	-1	-0.8	103	i	0.99	-31	259
Cc1ccc(Cl)cc1N1CCN(c2cccc[n+]2C)CC1	1	-0.4	102	i	0.95	-39	74
O=S(=O)(NC(=NC1CCCC1)C(F)(F)F)c1ccccc1	-11	0.7	102	i	1	-3	93
CCOP(=O)(OCC)C(Nc1cccc(C(F)(F)F)c1)c1ccc(Br)cc1 (stereo unspecified)	8	-1.2	102	i	1	-34	143
CC(NC1CCCC1)c1ccccc1 (stereo unspecified)	-11	·	101	i	0.93	·	·
O=C(COc1cc(F)ccc1[N+](=O)[O-])NCCCc1ccccc1	5	·	103	i	0.99	·	·
O=C(N/N=C/c1ccc(O)cc1O)/C(=C/c1ccccc1)CCO	4	-1.6	97	i	0.78	·	·
O=C1OCc2cccc3cccc1c23	-1	-0.7	104	i	0.79	54	129
CCOc1cc(C)c(S(=O)(=O)N2CCCC2)cc1C	-5	-2.0	103	i	0.99	·	·
O=C(NCc1ccncc1)C(=O)C1C(=O)Nc2ccccc21 (stereo unspecified)	0	·	114	i	0.94	10	129
CC1Cc2nc(SCC(=O)Nc3nc4ccccc4s3)n(C)c(=O)c2S1 (stereo unspecified)	0	-1.9	100	i	0.96	·	·
CC(=O)CCn1cc([N+](=O)[O-])nc1C	·	·	102	i	1.1	·	·
COCCN1Cc2cccc(C(=O)Nc3c(C)cccc3C)c2C1=O	-1	0.8	94	i	0.98	·	·
C=C1c2cc(C)ccc2NC(=O)N1c1ccccc1	-5	-2.3	103	i	0.96	14	118
COc1ccc(S(=O)(=O)Oc2cccc(/C=N/N=C3/NC(=O)C(CC(=O)O)S3)c2)cc1 (stereo unspecified)	-12	·	110	i	1	·	·
Cc1cccc(NCC(=O)N/N=C\c2c[nH]c3ccccc23)c1	9	·	98	i	0.82	10	85
Cc1ccc(NC(=O)CCC(=O)NNC(=O)c2ccco2)cc1C	-5	18*	101	i	1.2	·	·
Cc1cc(C)cc(-n2c(C)c3c(C)nnc(C)c3c2C)c1	-14	0.0	107	i	0.91	-44	91
Oc1cccc(Oc2ncc(C(F)(F)F)cc2Cl)c1	0	·	100	i	0.97	-12	59
Cc1nc(NC(=O)C23CC4CC(CC(C4)C2)C3)sc1Cc1ccc2c(c1)OCO2	-7	1.2	100	i	1.3	·	·
COc1ccc(/C=C/C(=O)NC(=S)NNC(=O)c2cccnc2)cc1	-2	-0.4	99	i	0.89	48	86
COc1ccccc1C(=O)NNC(=O)c1ccncc1	9	·	95	i	0.86	21	110
CCC12CN3CC(CC)(CN(C1)C3c1c(O)ccc3ccccc13)C2=O (stereo unspecified)	-9	-2.1	102	i	0.99	25	140
O=S(=O)(NCc1ccco1)N1CCOCC1	-4	-1.4	105	i	0.89	-494	43
O=C(c1ccc([N+](=O)[O-])cc1)N1CCSC1c1cccc(Cl)c1 (stereo unspecified)	-5	·	98	i	1.1	-8	117

7 compounds from above, ordered by the number in GALR2 ag, falling.
structure | GALR2 ag
Cc1ccc(NC(=O)Cc2nc(CCl)cs2)cc1 | 0.3
COc1cc(SC)ccc1C(=O)N(C)Cc1ccccc1 | 0.0
Oc1ccc(/C=N/NC(=S)Nc2cccnc2)cc1O | -0.7
O=C(CN1CCC(n2nnc3cc(F)ccc32)CC1)N1CCc2ccccc2C1 | -0.8
O=C(c1ccc(Cl)cc1)c1oc2ccccc2c1CS(=O)(=O)c1ccccc1 | -1.4
CC1Cc2nc(SCC(=O)Nc3nc4ccccc4s3)n(C)c(=O)c2S1 (stereo unspecified) | -1.9
CCOc1cc(C)c(S(=O)(=O)N2CCCC2)cc1C | -2.0

(listing goes on)
SMILES	PKD1 inh	GALR2 ag	RGS16-Gao HTS	HSV augment	HSV augment primary fold	INS promoter inh	INS promoter inh cell count
Cc1cc(C(=O)Nc2c(F)cc(F)cc2Br)no1	-4	-1.4	94	i	1.1	-14	103
S=c1nc(-c2ccccc2)n(CCCn2ccnc2)c2c1CCCC2	-17	-1.8	98	i	0.96	·	·
COC(=O)NNS(=O)(=O)c1ccc(C)cc1	-11	0.1	88	i	0.91	-21	108
O=C(O)c1ccc2noc(-c3ccccc3)c2c1	-4	0.1	103	i	1	-14	154
N#Cc1cc2c(nc1SCC(=O)N1CCCCC1)CCCCC2	0	-1.3	97	i	1	-41	96
CCCCC(=O)NC(=S)Nc1ccccc1N1CCCCC1	5	-1.4	100	i	1.1	21	124
COc1ccc(NC(=O)c2ccc(S(=O)(=O)N(C)c3ccccc3)cc2)cn1	·	·	102	i	0.85	·	·
O=C1OC(COc2ccc(Br)cc2)CN1c1ccccc1 (stereo unspecified)	·	·	108	i	1.1	·	·
O=[N+]([O-])c1ccc(Oc2ccc(Oc3ccc(C(F)(F)F)cn3)cc2)nc1	·	·	101	i	1.2	·	·
CC(C)C(c1nnnn1C1CCCC1)N1CCc2ccccc21 (stereo unspecified)	-2	-2.6	99	i	1.1	·	·
COC(=O)c1sc(NC(=S)NC(=O)c2ccc(F)cc2)nc1C	1	·	101	i	0.91	·	·
Cc1[nH]c2ccccc2c1[C@H]1[C@@H](CC#N)C1(C)C	2	-1.3	98	i	0.81	5	75
CC(C)(C)NC(=O)CCSc1nnc(-c2ccco2)o1	-1	·	112	i	0.97	-27	128

Outcome played no part in choosing rows (roughly 1.1% active in at least one column).
